# HPGD block: qHTS Assay for Inhibitors of HPGD (15-Hydroxyprostaglandin Dehydrogenase); 15-hydroxyprostaglandin dehydrogenase [NAD(+)] (Homo sapiens), P15428; purified HPGD, NADH fluorescence kinetic, PGE2 substrate; Potency, µM, for the others: top-dose activity change, negative = inhibition, actives largely listed as inhibitors; actives 4.3% (n = 150,000); AID 894, 2007; active = well fitted inhibition curve with a large enough effect (not every such curve was filed as active); inconclusive = small, poorly fitted or top-dose-only effect, or another doubt; inactive = no such curve, though single readings can be large or run the other way;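 also: top concentration of the series not given in the record; plate controls included wells without enzyme; inactives centre near -10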
# Target sequence (P15428 whole entry, looked up): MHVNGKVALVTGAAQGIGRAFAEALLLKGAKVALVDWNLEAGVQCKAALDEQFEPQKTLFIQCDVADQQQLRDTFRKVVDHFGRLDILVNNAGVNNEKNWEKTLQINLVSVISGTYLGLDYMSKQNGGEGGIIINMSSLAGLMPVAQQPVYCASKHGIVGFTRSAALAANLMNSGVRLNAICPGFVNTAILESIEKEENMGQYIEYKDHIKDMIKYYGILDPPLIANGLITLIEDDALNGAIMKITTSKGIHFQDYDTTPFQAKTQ
#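 NADH formation kinetics: reaction with 30 uM PGE2 and 1 mM NAD+ (final), 20 nM enzyme, Tris-HCl pH 8 with Tween 20, after 15 min compound preincubation at room temperature. Fluorescence change, last versus first of five reads.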
# The depositor's hits bear a star; ? = inconclusive; [ ] = another dose, or the depositor's remark. % is scaled to controls: 0 for no effect and ±100 for the full control effect; potency is read from the fitted curve at half-maximal effect. This is a subset, so the mix of outcomes need not match the whole.
HPGD block,structure
-18%,CC(=O)c1c(C)[nH]c(C(=O)Nc2ccc3c(c2)OCCO3)c1C
?,CCSc1nnc(NC(=O)c2csc3c2CCCC3)s1
-9%,CC(C)C(c1nnnn1Cc1ccc2c(c1)OCO2)N1CCN(c2ccccc2)CC1 (stereo unspecified)
-3%,CNC(=O)C1CC(=O)N(Cc2ccc(OC)c(OC)c2)C(=Nc2ccc(OC)cc2)S1 (stereo unspecified)
?,CCN(C(=S)Nc1cc(S(=O)(=O)N2CCOCC2)ccc1Cl)c1cccc2ccccc12
?,N#C/C(=C/c1ccc(N2CCCCCC2)o1)c1ccc(Cl)cc1
0%,COc1cc(C(=S)N2CCOCC2)ccc1OC(=O)Cc1ccc(F)cc1
-26%,CCCCCNC(=O)C(C)Sc1ccc(Cl)cc1 (stereo unspecified)
-3%,CCN(CC)C(=O)/C(NC(=O)c1ccccc1)=C(/Sc1ncccn1)c1ccccc1
190%[activator],CCCc1c(C)c2ccc(OCC(C)=O)cc2oc1=O
-7%,Cc1cc(C)cc(N(CC(=O)NC2CCCCC2)C(=O)c2ccc(C)s2)c1
-7%,C#CCOCCOCCOCCNc1nc(N2CCN(C(=O)[C@H](C)n3cc(CCCN=C(N)N)nn3)CC2)nc(N2CCN(C(=O)[C@H](CCCCN)n3cc(CCCC)nn3)CC2)n1
16µM*,Cc1cccc(CNc2cc(-c3ccccc3C)ncn2)c1
-10%,COc1cccc(/C=N/n2c(C)nc3ccccc32)c1OC
?,CN1CC(c2ccccc2)C(c2ccc(Cl)cc2)=N1 (stereo unspecified)
-1%,CCOC(=O)NCc1ccc(CNC(=O)OCC)cc1
-2%,BrC/C=C/CBr
5%,CC1(C)CCCC2(C)C3C(O)CC2(C)C(O)C31 (stereo unspecified)
0%,NC(=O)NC(Cc1ccccc1)c1ccccc1 (stereo unspecified)
?,COc1ccc(OC)c(NC(=O)c2nnn(Cc3ccccc3C)c2N)c1

# The list goes on.
HPGD block,structure
-26%,CC(=O)N(C)c1ccc(OCC(O)Cn2c3ccc(Cl)cc3c3cc(Cl)ccc32)cc1 (stereo unspecified)
-25%,COc1ccc(CC(=O)Nc2ccc3nc(C)sc3c2)cc1OC
-21%,N#C/C(=C\C1=C(N2CCOCC2)C(=C\c2ccc(Cl)cc2)/CC1)C(=O)Nc1ccccc1F
?,CCCC(=O)Nc1c(-c2ccc(OC)cc2)c(=O)c2ccccc2n1C
-12%,CCOC(=O)c1c(CN2CCCCC2)oc2ccc(O)cc12
-12%,CCCCC/C=C\CC1OC1C/C=C\C/C=C\CCCC(=O)O (stereo unspecified)
-3%,COc1ccc(C(=O)CSc2nnc(-c3cc(C)cc(C)c3)o2)cc1
-13%,CC(=O)Nc1ccc2c(c1)nc(CCNC(=O)c1ccccc1)n2C
?,CCn1nc(C)c(NC(=O)CCSc2nc(-c3ccco3)cc(C(F)(F)F)n2)c1C
1%,CC(Oc1ccc(O)cc1)(P(=O)(O)O)P(=O)(O)O
?,Cc1cccc2cc(C#N)c(SCC(=O)NCC3CCCO3)nc12 (stereo unspecified)
-7%,COc1cc(SC)ccc1C(=O)NCCOc1ccc(F)cc1
?,CCOc1ccccc1NC(=O)CSC1=C(C#N)C(c2ccco2)C(C(=O)Nc2nc3ccccc3s2)=C(C)N1 (stereo unspecified)
-11%,Cc1ccccc1NC(=O)CSc1nc2n(n1)CCCCC2
-21%,CCn1cc2c(c1-c1cccc(C)c1)c(=O)n(C)c(=O)n2C
-2%,C=CCN(CC=C)C(=O)c1ccccc1NC(=O)c1ccccc1C
-2%,COc1ccc(-n2nnc3c(SCC(=O)OCc4ccccc4)ncnc32)cc1
-26%,NC1=NC(=O)/C(=C/c2ccccc2OS(=O)(=O)c2ccccc2)S1
?,O=C(COC(=O)c1ccccc1Nc1ccc(SC(F)F)cc1)NC1CC1
-15%,CCOn1c(=O)c(-c2ccc(OC)c(OC)c2)[n+]([O-])c2ccccc21

# (list continues)
HPGD block,structure
-11%,COc1cccc2c(=O)cc(C)n(CC(=O)Nc3ccc(C)c(C)c3)c12
?,COc1ccc2[nH]c(C)cc(=O)c2c1
?,CCC(=O)Nc1cccc(-c2cn3ccccc3n2)c1
1%,COc1ccc(CCNS(=O)(=O)c2cccc(C)c2)cc1OC
-5%,O=C(C(=O)N1CCc2ccccc2C1)N1CCc2ccccc2C1
-6%,Cc1cc(N2CCC(C)CC2)nc2cccc(O)c12
-7%,COc1ccc(CCNC(=O)CSc2nc(O)c(CC(C)C)c(=O)[nH]2)cc1OC
-25%,CCOC(=O)c1c(NC(=O)C2CCCN(S(=O)(=O)c3ccccc3)C2)sc2c1CCCC2 (stereo unspecified)
-14%,COc1cc(/C=C/C(=O)N2c3ccccc3Sc3ccc(C(F)(F)F)cc32)cc(OC)c1OC
-4%,Cc1ccc(C)c(NC(=O)C(Sc2nncn2C)c2ccccc2)c1 (stereo unspecified)
-9%,Cc1ccc(N)c(C(=O)CCCCC(=O)O)c1
16µM*,O=C(NCc1ccco1)c1csc(Nc2ccccc2Cl)n1
-7%,COc1ccc(C(=O)Cn2nnc(-c3ccccc3-n3cnnn3)n2)cc1
-10%,Cc1ccc(/C=C/C(=O)Nc2ncc(C)s2)o1
0%,COCCNC(=O)c1ccccc1NC(=O)c1ccccc1N(C)S(=O)(=O)c1ccccc1
-17%,CN(C)/C=C(\C#N)c1nc2ccccc2[nH]1
-5%,CCn1c(SCc2ccccc2)nnc1-c1cccs1
-15%,COc1ccc(OC)c(-n2nnnc2SCC(=O)O)c1
-2%,Cc1ccc(OCC(=O)N2CCN(c3nnc(-c4ccccc4)c4ccccc34)CC2)cc1
?,CCOc1ccc(NS(=O)(=O)c2ccc3[nH]cc(C(=O)N(CC)CC)c(=O)c3c2)cc1

# Going on with the list.
HPGD block,structure
1%,CCOC(=O)c1[nH]c2ccccc2c1NC(=O)c1ccc(Br)o1
32µM*,O=C(c1ccc(-c2nnc(Nc3ccccc3)c3ccccc23)cc1)N1C[C@H]2C[C@H](C1)c1cccc(=O)n1C2
-21%,O=C(COC(=O)/C(=C/c1cccs1)c1cccs1)NCc1ccccc1Cl
11µM*,Cc1cccc(Nc2n[nH]c(C)c2[N+](=O)[O-])c1
-3%,O=C(c1cc(N2C(=O)C3C4CCC(C4)C3C2=O)ccc1Cl)N1CCN(c2ccccc2F)CC1 (stereo unspecified)
-7%,Cc1ccc(CSc2nnc(-c3ccc(S(=O)(=O)N4CCCC4)cc3)o2)cc1
-20%,O=C(OCn1nnc2ccccc2c1=O)c1cccs1
-4%,O=C(Nc1cccc([N+](=O)[O-])c1)c1ccc(-c2ccccc2)cc1
-1%,CCOc1cc(CNCCc2ccc(S(N)(=O)=O)cc2)ccc1OCC(=O)NC1CCCCC1
-7%,O=C(Nc1nnc(COc2ccc(Cl)cc2)s1)c1ccc([N+](=O)[O-])cc1
?,O=C(NCCCN1CCCC1=O)c1ccccc1NS(=O)(=O)c1ccc(F)cc1
-8%,O=C(CN(Cc1ccccc1F)S(=O)(=O)c1ccc(Cl)cc1)NCCC1=CCCCC1
-13%,CC(Sc1nc2ccccc2s1)C(=O)Nc1ccc2c(c1)OCO2 (stereo unspecified)
-2%,COc1ccc(S(=O)(=O)N2CCCCC2)cc1Br
-5%,O=C(C=C1CCN(c2ncc(C(F)(F)F)cc2Cl)CC1)NNC(=O)Nc1ccc(Cl)cc1
0.35µM*,CCN(CC)C(=O)c1ccc(COc2ccccc2Cl)cc1
16µM*,Clc1ccccc1-c1nnc(-c2ccccc2Cl)o1
-6%,Cc1ccc(Cn2nc(-c3ccccc3)nc2-c2ccccc2)cc1
-6%,O=C(NCc1ccco1)C(Cc1ccccc1)N1C(=O)c2ccccc2C1=O (stereo unspecified)
-8%,CCCCCc1nnc(NC(=O)CS(=O)(=O)Cc2ccccc2)s1

# (cont.)
HPGD block,structure
-20%,c1ccc(-c2nnc3sc(CN4CCC5(CC4)OCCO5)cn23)cc1
-13%,COC(=O)N1C2=C(c3ccccc3[C@@H]1CC(=O)Nc1ccc(Br)cc1)[C@@H]1C(=O)N(c3ccccc3)C(=O)[C@@H]1[C@H](C)C2
-14%,Cc1nc2ccccc2c2oc(C(=O)NCC3COc4ccccc4O3)cc12 (stereo unspecified)
-27%,C=CCOc1ccccc1/C=c1\sc2nc(=O)c(C)nn2c1=O
-12%,COC(=O)C1CCN(C(=O)Cc2ccc(OC)c(OC)c2)CC1
-9%,CCn1c(CSc2nc3ccccc3[nH]2)n[nH]c1=S
-15%,COC(=O)c1c(=O)n(O)c2ccc(OC)cc2[n+]1[O-]
-11%,Cn1c(CSCc2ccc(Cl)c(Cl)c2)nnc1SCC(=O)Nc1nccs1
?,COC(=O)C1=C(C)NC2=C(C(=O)CCC2)C1c1cn(Cc2ccc(Cl)cc2Cl)nc1-c1ccccc1 (stereo unspecified)
-6%,O=C1CC(C(=O)N2CCOCC2)C2(CCCCC2)O1 (stereo unspecified)
-11%,O=C(Nc1ccc(F)cc1)c1ccc(COc2ccccc2)cc1
-5%,CCOc1cc(CN2CCSCC2)ccc1O
4%,CCC(=O)OCC(=O)[C@@]1(OC(=O)CC)[C@H](C)C[C@@H]2[C@H]3CCC4=CC(=O)C=C[C@]4(C)[C@]3(Cl)[C@@H](O)C[C@@]21C
-24%,CC(=O)Oc1c(C(=O)c2nnc(C)o2)c(=O)n(Cc2ccccc2)c2ccccc12
-9%,Cc1nnc(SCC(=O)N2CCN(S(=O)(=O)c3ccccc3)CC2)[nH]c1=O
-6%,Cc1ccc(-c2nc(CSCC(=O)NCCCN3CCOCC3)c(C)o2)cc1
-6%,COc1cc2c3c(c1OC)C1(C=CC(=NNC(N)=O)C=C1)CC3N(C(C)=O)CC2 (stereo unspecified)
-9%,CC(=O)NNC(=S)Nc1cc(S(=O)(=O)N(C)C)ccc1C
-5%,Nc1ncnc2[nH]c(=O)[nH]c12
-5%,CCc1nnc(NC(=O)CSc2nnc(C3CCCCC3)n2-c2ccccc2)s1

# Later entries:
HPGD block,structure
3%,CC12CC(NC(=O)N1c1cccc(C(=O)NCc3ccccc3)c1)c1ccccc1O2 (stereo unspecified)
?,Cc1ccc(-c2cc(C(=O)NCc3ccco3)c3ccccc3n2)s1
-9%,Cc1ccc(-n2c(SCC(=O)Nc3ccc4c(c3)OCCO4)nnc2-c2ccco2)cc1
-10%,CCOC(=O)C1CCN(C(=O)COc2ccc(S(=O)(=O)NC(C)(C)C)cc2)CC1
-11%,CN(CC(=O)N1CCN(c2cccc(Cl)c2)CC1)S(=O)(=O)c1cccs1
-9%,Cn1c(=O)c(=O)n(C)c2cc(S(=O)(=O)N3CCN(c4ccc(F)cc4)CC3)ccc21
-17%,CCOC(=O)CC(NC(=O)c1cc2cc(Br)ccc2oc1=O)c1cccc([N+](=O)[O-])c1 (stereo unspecified)
-9%,O=C1CCCc2sccc2N1
-22%,O=C(CSc1nnc(Cc2cc(=O)[nH]c(=O)[nH]2)n1-c1ccccc1)N1CCCCC1
-3%,CCOc1ccc(NC(=O)c2sc(N3CCOCC3)nc2-c2ccccc2)cc1
-23%,CC(NC(=O)COC(=O)c1cc(NS(=O)(=O)c2ccc(Cl)c([N+](=O)[O-])c2)ccc1O)C1CC2CCC1C2 (stereo unspecified)
-14%,CC(=O)Nc1ccccc1Sc1ccc2c3c(cccc13)C(=O)N(c1ccc(C)cc1)C2=O
-4%,O=C(O)CCSc1nc2ccccc2n1CCOc1ccccc1
2%,NCCSC[C@H](N)C(=O)O
-2%,O=C1CCCC2=C1C1(O)C(=O)c3ccccc3C1(O)O2 (stereo unspecified)
?,Cc1ccc2[nH]c(=O)c(C(c3nnnn3C(C)(C)C)N3CCN(C(=O)c4ccco4)CC3)cc2c1 (stereo unspecified)
-19%,Cc1cc(C)cc(NCc2cc(=O)oc3cc(-c4ccccc4)c(O)cc23)c1
?,Cc1nc(NC(=O)/C=C/c2ccccc2)sc1C(=O)Nc1ccccc1
?,Cc1ccc(-c2nnc(SCC(C)C)n2C)cc1
-19%,COc1ccc(/C=C/C(=O)NCCOc2ccc(C)cc2)cc1
-17%,CCOCCCN1C(=O)CN(C2CCCCC2)C(=O)C1c1ccc(OCC)c(OC)c1 (stereo unspecified)
-6%,O=C(CC12CC3CC(CC(C3)C1)C2)NCCN1CCOCC1

# Grouped by structure: those above containing two or more sulfur atoms
HPGD block,structure
?,CCSc1nnc(NC(=O)c2csc3c2CCCC3)s1
?,CCN(C(=S)Nc1cc(S(=O)(=O)N2CCOCC2)ccc1Cl)c1cccc2ccccc12
?,CCOc1ccccc1NC(=O)CSC1=C(C#N)C(c2ccco2)C(C(=O)Nc2nc3ccccc3s2)=C(C)N1 (stereo unspecified)
-26%,NC1=NC(=O)/C(=C/c2ccccc2OS(=O)(=O)c2ccccc2)S1
-25%,CCOC(=O)c1c(NC(=O)C2CCCN(S(=O)(=O)c3ccccc3)C2)sc2c1CCCC2 (stereo unspecified)
-5%,CCn1c(SCc2ccccc2)nnc1-c1cccs1
-21%,O=C(COC(=O)/C(=C/c1cccs1)c1cccs1)NCc1ccccc1Cl
-7%,Cc1ccc(CSc2nnc(-c3ccc(S(=O)(=O)N4CCCC4)cc3)o2)cc1
-13%,CC(Sc1nc2ccccc2s1)C(=O)Nc1ccc2c(c1)OCO2 (stereo unspecified)
-8%,CCCCCc1nnc(NC(=O)CS(=O)(=O)Cc2ccccc2)s1
-9%,CCn1c(CSc2nc3ccccc3[nH]2)n[nH]c1=S
-11%,Cn1c(CSCc2ccc(Cl)c(Cl)c2)nnc1SCC(=O)Nc1nccs1
-9%,Cc1nnc(SCC(=O)N2CCN(S(=O)(=O)c3ccccc3)CC2)[nH]c1=O
-9%,CC(=O)NNC(=S)Nc1cc(S(=O)(=O)N(C)C)ccc1C
-5%,CCc1nnc(NC(=O)CSc2nnc(C3CCCCC3)n2-c2ccccc2)s1
-11%,CN(CC(=O)N1CCN(c2cccc(Cl)c2)CC1)S(=O)(=O)c1cccs1

# From PubChem
